Bioassay records: PubChem BioAssay, Vanderbilt University
GIRK2 activ: activators of human GIRK2 potassium channels | G protein-activated inward rectifier potassium channel 2 (Homo sapiens), P48051 | HEK293-GIRK2 thallium flux, Thallos fluorescence | calls only for hits at 25 µM | hit rate 0.05% among 63,000 | AID 1259325, 2017;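 active = among the strongest 0.2% of first-round signals and kept after retests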;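 note: first round at about 10 µM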
Target sequence (P48051 whole entry, looked up): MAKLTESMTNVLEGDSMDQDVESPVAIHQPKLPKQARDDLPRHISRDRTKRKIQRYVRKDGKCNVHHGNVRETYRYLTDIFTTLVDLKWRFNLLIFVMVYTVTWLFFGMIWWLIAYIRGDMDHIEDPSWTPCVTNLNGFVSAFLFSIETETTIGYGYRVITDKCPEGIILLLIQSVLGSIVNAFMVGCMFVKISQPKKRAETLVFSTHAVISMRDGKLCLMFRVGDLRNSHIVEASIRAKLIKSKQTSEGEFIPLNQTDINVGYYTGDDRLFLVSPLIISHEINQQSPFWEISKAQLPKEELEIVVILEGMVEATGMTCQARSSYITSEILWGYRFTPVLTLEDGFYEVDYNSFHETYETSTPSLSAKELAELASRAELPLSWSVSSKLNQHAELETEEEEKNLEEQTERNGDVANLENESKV
Calls only; i = inactive. The list is partial, so the mix of outcomes need not match the whole.

Start of the data: the first two records, to show the layout:
SMILES	GIRK2 activ
O=C(CSc1cc(-n2ccc(C(=O)NC3CC3)n2)ncn1)Nc1ccc2c(c1)OCO2	i
Cc1csc(NS(=O)(=O)CCOc2ccccc2)n1	i

This part in full, from the start:
SMILES	GIRK2 activ
O=C(CSc1cc(-n2ccc(C(=O)NC3CC3)n2)ncn1)Nc1ccc2c(c1)OCO2	i
Cc1csc(NS(=O)(=O)CCOc2ccccc2)n1	i
CC(C)c1cnc2c(c1SCC(=O)Nc1cccc(F)c1)c(=O)n(C)c(=O)n2C	i
COc1ccc2c(c1)c(CC(=O)NCCCNC(=O)CCCC[C@@H]1SC[C@@H]3NC(=O)N[C@@H]31)c(C)n2C(=O)c1ccc(Cl)cc1	i
COc1cccc(OC)c1C(=O)Oc1ccc2c(c1)O/C(=C\c1ccncc1)C2=O	i
Cc1csc(CN2CCN(C(=O)/C=C/c3ccc4c(c3)OCO4)CC2)n1	i
Cc1noc(C)c1CN1CCN(C(=O)C(C)Oc2ccccc2)CC1 (centres undefined)	i
COc1cccc2sc(NC(=O)c3cc(C)n(C)n3)nc12	i
CN(C)CCNc1nc2c(c(=O)n(Cc3ccccc3Cl)c(=O)n2C)n1C	i
COc1cc(NC(=O)CSc2ccc(N3CCOCC3)nn2)cc(OC)c1	i
COc1ccc(C(=O)Nc2cc(C)nn2-c2nc(-c3cccs3)cs2)cc1OC	i
COC(=O)Cn1c(=O)c2c(nc3n2CC(C)CN3c2ccc(C)c(C)c2)n(C)c1=O (centres undefined)	i
CC(=O)c1ccc(C(=O)Nc2sc3c(c2-c2nc4ccccc4s2)CCN(C)C3)cc1	i
Cc1[nH]c(=O)[nH]c(=O)c1CCc1nnc(SCC(=O)C(C)(C)C)o1	i
Cc1nc(SCC(=O)Nc2ccc(Cl)cc2C(F)(F)F)[nH]c(=O)c1Cc1ccccc1	i
Cc1onc(-c2ccccc2Cl)c1C(=O)Nc1ccc(-c2cn3cccnc3n2)cc1	i
CN(C)c1ncc(NC(=O)C(C)(C)C)cn1	i
Cc1ccc(S(=O)(=O)N2CCCOC2CNC(=O)C(=O)NCCCN2CCOCC2)cc1 (centres undefined)	i
CCOC(=O)c1ccc(NS(=O)(=O)c2ccsc2C(=O)OC)cc1	i
O=C(Cn1ncn2nc(-c3ccc(Cl)cc3)cc2c1=O)Nc1ccccc1F	i
COc1ccccc1NC(=O)c1c(O)c2cnn(Cc3ccccc3)c2[nH]c1=O	i
COc1cccc(CNC(=O)Cn2c(N3CCN(c4ccccc4)CC3)nc(C)cc2=O)c1	i
COCCN1CCC(NC(=O)CCCc2ccccc2)CC1	i
C#CCn1c(=NC(=O)CSCC(=O)N2CCCC2)sc2ccccc21	i
COc1cc(Cl)cc2c1OCC(=O)N(c1ccc(S(C)(=O)=O)cc1)C2	i
CC(O)CNc1c([N+](=O)[O-])c(=O)n(C)c2ccccc12 (centres undefined)	i
O=C(c1cnccn1)N1CCN(C(=O)C2CC2c2ccccc2)CC1 (centres undefined)	i
CN(C)S(=O)(=O)c1ccc(C(=O)NCCOc2ccccc2)cc1	i
CC(C)S(=O)(=O)c1cccc(C(=O)Nc2ccc(Cl)c3ncsc23)c1	i
NC(=O)CSc1nnc(N2CCN(C(=O)c3cc4ccccc4o3)CC2)s1	i
CCOc1cc(=O)c(C(=O)N2CCc3ccccc3C2)nn1-c1cc(OC)cc(OC)c1	i
OCc1nc2ccccc2n1CCOc1ccccc1Cl	i
CN(C(=O)Cn1c(=O)n(Cc2ccncc2)c(=O)c2ncccc21)c1ccccc1	i
CCc1ccc(NC(=O)Cn2c(=O)n(-c3ccc(CC(=O)NC(C)C)cc3)c(=O)c3ccccc32)cc1	i
Cc1cc(C(F)(F)F)nc(CCNC(=O)c2ccc(OC(F)(F)F)cc2)n1	i
O=C(CSc1ccc(N2CCCC(C(=O)NC3CC3)C2)nn1)Nc1cccc(Br)c1 (centres undefined)	i
CC1(O)C(O)C(CO)OC1n1ccc(N)nc1=O (centres undefined)	i
Cn1c(=O)[nH]c(=O)c2c1nc(Br)n2CCCOc1ccccc1	i
Cc1ccc(-n2nnnc2CN2CCN(C(=O)c3c(F)cccc3Cl)CC2)cc1	i
COc1cccc(C(=O)Nc2ccc3c(c2)CCC(=O)N3CC(C)C)c1	i
COc1ccc(C2CC3C4NN=C(SCC(=O)Nc5cc(OC)ccc5OC)N4C=CN3N2)cc1 (centres undefined)	i
CC(=O)N1CCN(c2ccnc3c2c(=O)n(CC(=O)Nc2ccc(F)cc2)c(=O)n3C)CC1	i
COc1ccc(NC(=O)CC(C)(C)C)cc1N1CCCC1=O	i
O=C(c1ccccc1C(F)(F)F)N1CCN(c2ncnc3c2nnn3-c2ccccc2)CC1	i
COc1cccc(CNC(=O)CSc2ncnc3c(-c4ccccc4)c[nH]c23)c1OC	i
CC1(C)Cc2cccc(OCC(=O)NCCc3nc(C4CC4)cc(C(F)(F)F)n3)c2O1	i
O=C1Nc2ccccc2Oc2ccc(NS(=O)(=O)C3CCCCC3)cc21	i
C=C1CCC2[C@@](C)(C=O)CCC[C@]2(C)[C@H]1CC/C(C)=C/CO (some centres undefined)	i
Cc1ccc(C(C)C)c(OCC(O)Cn2c(N3CCN(C)CC3)nc3c2c(=O)[nH]c(=O)n3C)c1 (centres undefined)	i
Cc1nc(-n2cccc2)sc1C(=O)N1CCCC(c2nnc(C(F)(F)F)o2)C1 (centres undefined)	i

Going on with the list:
SMILES	GIRK2 activ
O=C(Nc1cc(N2CCOCC2)ncn1)C1CC(=O)N(c2cccc(F)c2)C1 (centres undefined)	i
CC(COc1ccccc1)N(CCCl)Cc1ccccc1 (centres undefined)	i
COc1ccc2nc(N(CCn3cccn3)C(=O)CCSc3ccccc3)sc2c1	i
CCC(C)NC(=O)CCn1c(=O)c2ccccc2n2c(SCC(N)=O)nnc12 (centres undefined)	i
CC(=O)C(C)n1c(Br)nc2c1c(=O)n(Cc1cccc(Cl)c1)c(=O)n2C (centres undefined)	i
COc1ccc(C)cc1-n1c(C)c(C)n2c3c(=O)n(CCN4CCOCC4)c(=O)n(C)c3nc12	i
COc1ccccc1NC(=O)Cn1cccc(-c2nc(-c3ccc(OC)c(OC)c3)no2)c1=O	i
COc1ccccc1OCC(=O)Nc1ccc2oc(=O)ccc2c1	i
COc1ccc(N2CC(c3nc4ccccc4n3Cc3ccccc3OC)CC2=O)cc1 (centres undefined)	i
CCN(CC)C(=O)c1cnc2ccc(F)cc2c1S(=O)(=O)c1ccc(C#N)cc1	i
COc1ccc(CNC(=O)C(=O)NCC2OCCCN2S(=O)(=O)c2ccccc2)cc1 (centres undefined)	i
O=C(Nc1nccs1)c1ccc(Cl)c(S(=O)(=O)N2CCCCCC2)c1	i
NC(=O)c1cccc(Nc2nccc(Nc3cccc4[nH]ncc34)n2)c1	i
CN(C)C(CNC(=O)c1ccsc1)c1ccc2c(c1)CCO2 (centres undefined)	i
O=c1n(Cc2cc(F)cc(F)c2)nc2c(S(=O)(=O)N3CCCCC3)cccn12	i
COC(=O)c1ccc(CSc2nc3cc(-c4ccccc4)sc3c(=O)n2C)o1	i
Cn1c(=O)c2c(nc(NCCO)n2CC(O)COc2ccc(Cl)cc2)n(C)c1=O (centres undefined)	i
O=C(Cn1ccnc1-c1ccnc(N2CCSCC2)c1)N1CCN(c2ccccc2)CC1	i
COCCN1CCC(CNC(=O)c2cccc(N(C)C)c2)CC1	i
COCC(C)NC(=O)C(=O)Nc1ccc(C(=O)OC)cc1 (centres undefined)	i
O=C(c1cc(C2CC2)on1)N(CCc1cccs1)Cc1cccnc1	i
CCOC(=O)N1CCC(NC(=O)CSc2ccc(-c3ccccc3Cl)nn2)CC1	i
COc1ccc(OC)c(C2NC(=O)NC(C)=C2C(=O)Nc2ccc(C)c(C)c2)c1 (centres undefined)	i
Cc1cc(C)n(-c2cc(SCC(=O)Nc3cccc(Br)c3)ncn2)n1	i
COc1ccc(/C=N\Nc2nc3c(c(=O)[nH]c(=O)n3C)n2Cc2ccc(C)cc2)cc1	i
CN(C)S(=O)(=O)c1ccc(C(=O)N2CCC(S(C)(=O)=O)C2)cc1 (centres undefined)	i
Cc1cc(NC(=O)Cn2c(C)nc3c(sc4ncccc43)c2=O)ccc1Br	i
CC1CN(CC(=O)Nc2ncc(Cc3ccccc3F)s2)CC(C)O1 (centres undefined)	i
COc1cccc(CNC(=O)Cn2nc(NC(C)C)c(-c3nc(-c4ccc(Cl)cc4)no3)c2N)c1	i
CCC(C)C(=O)O[C@@H]1[C@H](OC(C)=O)c2c(ccc3ccc(=O)oc23)OC1(C)C (some centres undefined)	i
COc1ccc(/C=C2/NC(=O)N(CC(=O)Nc3ccc(C(C)C)cc3)C2=O)cc1	i
O=C(Nc1ccc(Cl)c2ncsc12)c1ccc([N+](=O)[O-])o1	i
CCOCCn1c(=O)c2c(nc3n2CC(C)CN3c2cc(C)ccc2OC)n(C)c1=O (centres undefined)	i
CCS(=O)(=O)N1CCCc2cc(NS(=O)(=O)c3ccc(OC)c(C)c3)ccc21	i
CCOc1ccc2cccc(NC(=O)c3ccc(S(=O)(=O)N(C)C)cc3)c2n1	i
Cc1nc(NCCNS(C)(=O)=O)cc(N(C)C)n1	i
Cc1ccc(NC(=O)CSc2nccn(-c3ccc(C)cc3)c2=O)cc1	i
CCN(C(=O)c1cc2cccnc2n(Cc2ccc(F)cc2)c1=O)c1ccccc1C	i
COc1ccccc1NC(=O)Cn1nc(-c2cccs2)c2sc(N3CCCCC3)nc2c1=O	i
CC1C(=O)N2CCCc3cc(NC(=O)C(=O)NCC(C)(O)c4ccco4)cc1c32 (centres undefined)	i
N#C/C(=C\c1ccccc1Cl)c1nc2ccccc2o1	i
Cc1cccn2c(=O)c3cc(C(=O)NCCCN4CCOCC4)n(Cc4ccccc4)c3nc12	i
COC(=O)c1ccc(-c2csc(NC(=O)CCS(=O)(=O)Cc3ccccc3)n2)cc1	i
COC(=O)[C@@]1(O)C=CC[C@@H]2[C@@]3(C)C[C@@H](c4ccoc4)OC(=O)[C@H]3CC[C@]21C	i
COc1ccc(CNC(=O)Cn2c(N3CCOCC3)nc(C)cc2=O)cc1	i
Cn1cccc(C(=O)NCC2CCN(C(=O)Oc3ccccc3)CC2)c1=O	i
COc1ccc(-n2nnc(C(=O)Nc3ccc(OC)cc3OC)c2C2CC2)cc1	i
CC1CCC(NC(=O)c2cn(C)nc2S(=O)(=O)N2CCN(c3cccc(Cl)c3)CC2)CC1 (centres undefined)	i
COc1ccc2c(c1)CN(C)CCS2	i
COc1ccc(-c2[nH]c(-c3ccccc3)nc2SCC(=O)NCc2ccco2)cc1OC	i

17 compounds from above, arranged by formula weight, high to low:
SMILES	GIRK2 activ
COc1ccccc1NC(=O)Cn1nc(-c2cccs2)c2sc(N3CCCCC3)nc2c1=O	i
CC1CCC(NC(=O)c2cn(C)nc2S(=O)(=O)N2CCN(c3cccc(Cl)c3)CC2)CC1 (centres undefined)	i
Cc1cccn2c(=O)c3cc(C(=O)NCCCN4CCOCC4)n(Cc4ccccc4)c3nc12	i
COc1ccc(-c2[nH]c(-c3ccccc3)nc2SCC(=O)NCc2ccco2)cc1OC	i
CCOCCn1c(=O)c2c(nc3n2CC(C)CN3c2cc(C)ccc2OC)n(C)c1=O (centres undefined)	i
CCS(=O)(=O)N1CCCc2cc(NS(=O)(=O)c3ccc(OC)c(C)c3)ccc21	i
CCN(C(=O)c1cc2cccnc2n(Cc2ccc(F)cc2)c1=O)c1ccccc1C	i
CCOc1ccc2cccc(NC(=O)c3ccc(S(=O)(=O)N(C)C)cc3)c2n1	i
COc1ccc(-n2nnc(C(=O)Nc3ccc(OC)cc3OC)c2C2CC2)cc1	i
COc1ccc(/C=C2/NC(=O)N(CC(=O)Nc3ccc(C(C)C)cc3)C2=O)cc1	i
COC(=O)[C@@]1(O)C=CC[C@@H]2[C@@]3(C)C[C@@H](c4ccoc4)OC(=O)[C@H]3CC[C@]21C	i
COc1ccc(CNC(=O)Cn2c(N3CCOCC3)nc(C)cc2=O)cc1	i
Cn1cccc(C(=O)NCC2CCN(C(=O)Oc3ccccc3)CC2)c1=O	i
O=C(Nc1ccc(Cl)c2ncsc12)c1ccc([N+](=O)[O-])o1	i
N#C/C(=C\c1ccccc1Cl)c1nc2ccccc2o1	i
Cc1nc(NCCNS(C)(=O)=O)cc(N(C)C)n1	i
COc1ccc2c(c1)CN(C)CCS2	i

(continued)
SMILES	GIRK2 activ
COC(=O)c1sccc1S(=O)(=O)Nc1ccc(-n2nnc(C(N)=O)n2)cc1	i
Cc1c(C)n2c3c(=O)n(C)c(=O)n(C)c3nc2n1-c1cccc(OC(C)C)c1	i
COc1cc(NC(=O)c2nnn(Cc3nc(-c4ccccc4)oc3C)c2N)cc(OC)c1	i
COc1cc(C2NC(=S)NC(C)=C2C(=O)Nc2ccc(C)c(C)c2)cc(OC)c1OC (centres undefined)	i
CCN(CC)C(=O)c1cnc2ccc(F)cc2c1S(=O)(=O)c1ccc(C)c(F)c1	i
CCOCCn1c(N2CCN(CCCc3ccccc3)CC2)nc2c1c(=O)[nH]c(=O)n2C	i
COc1ccc(C2=NN(C(C)=O)C(c3c(OC)ccc4ccccc34)C2)cc1OC (centres undefined)	i
COc1cc(C(=O)NCC(=O)Nc2nc3ccccc3[nH]2)cc(OC)c1OC	i
O=C(CN1CC(c2nc(Cc3ccccc3)no2)C1)NCC1CCCO1 (centres undefined)	i
COc1ccccc1NC(=O)C1CC(=O)Nc2nc3ccccc3n21 (centres undefined)	i
O=C(Nc1c(C(=O)c2ccc3c(c2)OCCO3)oc2ccccc12)c1cccc([N+](=O)[O-])c1	i
CCc1cc(S(=O)(=O)N2CCN(C)CC2)ccc1OC	i
CCCNC(=O)CSc1nnc2n(CCC(=O)NC3CCCCC3)c(=O)c3ccccc3n12	i
CCc1ccc(NC(=O)Cn2c3ccc(C)cc3c3ncn(Cc4nc(C5CC5)no4)c(=O)c32)cc1	i
Cc1ccc2nc(-c3ccc(NC(=O)C4CN(C(=O)c5cc(C)on5)C4)cc3)sc2c1	i
COc1ccc(/C=C/C(=O)NCc2cc(-c3cccs3)n(C3CCCC3)n2)cc1OC	i
COc1ccc(OCCCn2c(C(C)O)nc3ccccc32)cc1 (centres undefined)	i
O=S(=O)(c1cccnc1)N(Cc1ccsc1)CC(F)(F)F	i
O=S(=O)(Nc1ccc(F)cc1)c1c(F)cccc1F	i
CSc1cccc(NC(=O)CSc2ncc(S(=O)(=O)c3ccc(C)cc3)c(N)n2)c1	i
COC(=O)CN1N=C(C(C)(C)C)Cn2c1nc1c2c(=O)n(CC(=O)OC)c(=O)n1C	i
O=C(Nc1cccc(N2CCCS2(=O)=O)c1)c1cccc([N+](=O)[O-])c1	i
